TRPML1 agonist: agonists of human TRPML1 channel; AID 624414; TRPML1-expressing cells, Ca2+ dye fluorescence, FDSS; host cell line not named in the record; reference of the full effect not given here; activation, % (concentration not given with the values); Q9GZU1; 0.12% of 410,000 active; in the data active = activation above about 50%; inconclusive = about 30% to 50%; inactive = below about 30%; note: 0% is about no effect; the text of the record puts the active cut at 80%
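Agonist activity was taken from a 110 s kinetic Ca2+ dye read on the FDSS after pinning compounds onto TRPML1-DL cells. The cells were seeded at 1,500/well with Tet inducer, incubated about 16 h, then dye-loaded at room temperature.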
Menin-MLL FL inh: menin-MLL binding inhibition, fluorescein peptide; Fluorescence polarization, fluorescein-MLL peptide displacement from menin; FP activity change, % at 61.4 µM; 290,000 tested, under 10 active; AID 1766; inconclusive = falling polarisation curve, or a change in total fluorescence; inactive = total fluorescence flat and polarisation flat or rising; no compound was filed as active; the % refers to the polarisation; negative = inhibition;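 note: % of control where 0% means no effect; inhibitors lower the polarisation; unlabelled MLL peptide was the positive control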
TRPV1 PAM: human TRPV1 potentiation | AID 540277 | 0.02% of 320,000 active | Q8NER1 | TRPV1-expressing cells, Fluo-8 calcium influx, capsaicin EC20 potentiation; host cell line not named in the record; control for the full effect not named in the record | potentiation, % at 8.33 µM; active means potentiation above 80%; inconclusive means 30% to 80%; inactive means below 30%; note: 0% is about no effect
Target sequence (Q8NER1 whole entry, looked up): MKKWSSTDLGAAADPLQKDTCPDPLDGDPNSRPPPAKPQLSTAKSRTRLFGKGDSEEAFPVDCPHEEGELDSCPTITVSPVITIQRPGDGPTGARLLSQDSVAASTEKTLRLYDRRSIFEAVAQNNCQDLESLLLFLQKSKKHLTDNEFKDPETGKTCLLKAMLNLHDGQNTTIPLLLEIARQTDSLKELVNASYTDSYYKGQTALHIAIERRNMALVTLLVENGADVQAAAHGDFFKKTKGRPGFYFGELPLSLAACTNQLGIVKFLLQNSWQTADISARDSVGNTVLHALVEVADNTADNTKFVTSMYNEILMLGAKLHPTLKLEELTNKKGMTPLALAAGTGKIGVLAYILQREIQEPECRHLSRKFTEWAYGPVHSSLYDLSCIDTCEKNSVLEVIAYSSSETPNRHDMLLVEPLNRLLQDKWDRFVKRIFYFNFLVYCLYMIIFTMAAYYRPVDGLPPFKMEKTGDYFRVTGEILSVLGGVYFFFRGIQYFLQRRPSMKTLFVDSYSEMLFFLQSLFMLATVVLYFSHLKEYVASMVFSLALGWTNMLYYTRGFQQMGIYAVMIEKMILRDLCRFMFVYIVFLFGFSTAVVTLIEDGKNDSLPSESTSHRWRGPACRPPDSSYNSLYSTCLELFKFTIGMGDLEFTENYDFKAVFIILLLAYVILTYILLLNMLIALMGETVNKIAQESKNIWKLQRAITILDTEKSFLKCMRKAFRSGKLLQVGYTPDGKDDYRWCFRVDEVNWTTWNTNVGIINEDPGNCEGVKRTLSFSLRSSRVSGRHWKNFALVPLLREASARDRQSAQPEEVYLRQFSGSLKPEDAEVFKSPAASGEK
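Fluo-8 calcium influx in TRPV1-expressing cells, kinetic read (ex 480/em 520 nm). Compound added and read 3 min for agonist activity, followed by capsaicin at EC20 final and 2 min further read for enhancement.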
Sfp inh: inhibitors of Bacillus subtilis Sfp phosphopantetheinyl transferase | Biochemical Sfp PPTase activity, qHTS | 3.5% of 310,000 active | Q9F4F7 | Potency, µM, for inactives: max response, negative = inhibition, hits mostly inhibitors; active = well fitted inhibition curve with a large enough effect; inconclusive = small, poorly fitted or top-dose-only effect, or another doubt; inactive = no such curve, though single readings can be large or run the other way;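 note: the enzyme is Sfp with the accession as filed and its product quenches rhodamine fluorescence; potency is the fitted concentration of half-maximal effect; 0% = enzyme reaction without inhibitor and -100% = no enzyme wells; top concentration of the series not given in the record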
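Reaction rates are the 30-min fluorescence difference (ex 525, em 598 nm) in wells containing 15 nM Sfp, 5 uM rhodamine-CoA and 12.5 uM BHQ-2-YbbR at pH 7.6 with 10 mM MgCl2.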
PINK1 modulator: changes PINK1 expression; PINK1 immunofluorescence, high-content cytometry, 24 h; Potency, µM (highest dose often 76.6 µM), inactives show at the top dose activation (PINK1 increase), most hits filed as activators; 0.2% of 410,000 active; active = well fitted activation curve with a large enough effect; inconclusive = small, poorly fitted or top-dose-only effect; inactive = flat fitted curve, though single readings scatter; cell line not stated here;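 note: potency is the fitted concentration of half-maximal effect; % of control where 0% means no effect; nearly all actives have a fitted effect of over 65% in size; a mitochondrial uncoupler was the plate control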
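PINK1 protein, normally rapidly degraded, was detected by immunofluorescence after 24 hour compound treatment of a stable cell line. Titration data (5 concentrations) came from laser-scanning cytometry, with CCCP-treated wells as controls.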
ClpP mod: qHTS Assay for Activators of ClpP; Potency, µM (top dose mostly 57.5 µM), inactives show at the highest dose activity change, negative = active; purified B. subtilis ClpP, FRET peptide cleavage, 20 min; 1.9% of 340,000 active; AID 651965, 2013; active = well fitted falling curve with a large enough effect; inconclusive = small, poorly fitted or top-dose-only effect; inactive = no such curve, though single readings can be large or run the other way; note: potency is the fitted concentration of half-maximal effect; the source files actives as falling curves though it sought activators and does not explain the sign; nearly all actives have a fitted effect of over 65% in size; many hits overshoot -100%
Target sequence (P80244 whole entry, looked up): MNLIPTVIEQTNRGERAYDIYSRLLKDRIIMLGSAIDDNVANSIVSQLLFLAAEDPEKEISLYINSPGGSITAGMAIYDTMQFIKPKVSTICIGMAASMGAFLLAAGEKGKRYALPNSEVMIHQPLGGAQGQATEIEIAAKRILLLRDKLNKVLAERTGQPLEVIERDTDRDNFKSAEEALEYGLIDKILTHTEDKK
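ClpP 10 microg/mL final, pH 8 Tris/KCl buffer with BSA, glycerol, Tween-20; compound pinned in; FRET-FV substrate; RT 20 min; Ex320/Em430; ΔFRET vs ADEP 5.8 microM, DMSO, no enzyme.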
TRPML1 blocker: human mucolipin-1 channel inhibition; Q9GZU1; TRPML1-inducible cells, Ca2+ dye fluorescence, FDSS; stronger effect = lower value; inhibition of EC80 agonist-evoked calcium signal; activity change, negative = inhibition, % (concentration not given with the values); 0.02% of 390,000 active; AID 624415; in the data active means activity change below about -50%; inconclusive means about -30% to -50%; inactive means above about -30%;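 note: stimulus is agonist 54-4 at its EC80 concentration; % is set by controls: 0 for no effect and ±100 for the full control effect; compound concentration not given in the record; the text of the record puts the active cut at -80%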
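TRPML1-DL cells, Tet-induced overnight (~16 h, 37 °C) at 1,500 cells/well, were loaded with Ca8 no-wash dye plus quencher for 45-90 min at room temperature. Compounds were pinned during FDSS kinetic reading; agonist 54-4 at EC80 (4 uM final) then added.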
* marks the source's active call; other numbers are inactive results; i = inactive; ? = inconclusive; · = not tested or not shown; & = joins results of further samples; [ ] = dose if it differs, or a comment.

compound	TRPML1 agonist	Menin-MLL FL inh	TRPV1 PAM	Sfp inh	PINK1 modulator	ClpP mod	TRPML1 blocker
CC(=O)NCC(c1ccc2c(c1)OCO2)N1CCN(c2ccccc2)CC1 (stereo not given)	-0.5	·	·	·	-0.9%	-1.6%	4.5
CCO[C@H]1OC(C(=O)N2CCN(C)CC2)=C[C@@H](C2CC2)[C@@H]1CCCO	0.0	-1.0	11.3	15.9%	-1.4%	-0.5%	39.2
CC1(C)CC(=O)C=C(NCc2ccco2)C1	-0.3	-1.5	-5.1	9.4%	-2.4%	-1.6%	-0.2
Cc1ccc(-c2[nH]ncc2CNC(C)c2ccccc2)cc1 (stereo not given)	0.1	·	·	·	0.3%	-1.6%	·
Cc1csc2c(=O)sc(NC(=O)c3ccco3)nc12	3.6	0.0	-1.2	56.2µM*	0.9%	1.6%	28.6
COc1ccccc1NC(=O)Nc1nnc(Cc2ccccc2F)s1	1.2	9.2	8.4	4.3%	6.9%	2.7%	7.3
CCc1nc(NCCO)c(C#N)c2c1CSC(C)(C)C2	4.2	-1.7	11.2	70.8µM*	1.8%	4.0%	21.2
COc1ccc(/C=C/C(=O)NCC2COc3ccccc3O2)c(OC)c1 (stereo not given)	1.5	17.5	6.9	-17.7%	1.2%	·	4.9
COCCN(C(=O)CSc1ncn[nH]1)c1c(N)n(Cc2ccccc2)c(=O)[nH]c1=O	0.1	·	10.5	·	-0.2%	-1.2%	29.5
Cc1cc(C)cc(N(CC(=O)NC2CCCCCC2)S(=O)(=O)c2c(C)[nH]c(=O)[nH]c2=O)c1	0.1&0.3	3.3	2.0&3.4	9.9%	1.7%&-0.4%	-0.2%	6.2&0.2
O=C(CSC1=NCCS1)Nc1ccc(F)cc1	0.0	1.5	-4.7	10.9%	-2.0%	·	8.3
OCC[C@@H]1C[C@H](O)[C@@H](O)[C@]2(Cc3ccccc3CCO2)O1	-0.5	-9.3	-0.6	9.6%	0.2%	0.8%	-4.8
C=CCOc1c(Br)cc(CNn2c(C)n[nH]c2=S)cc1OC	1.2	-2.2	-2.6	-13.9%	1.2%	-1.1%	-21.7
Cc1ccccc1OCC(=O)OCC(=O)c1ccc(OC(=O)c2ccccc2)cc1	1.4	3.8	7.1	7.0%	-2.7%[38.3 µM]	0.4%	5.0
CC1CCN(C(=O)C(NS(=O)(=O)c2cccc3nsnc23)C(C)C)CC1 (stereo not given)	-0.6	·	-7.0	14.3%	-0.3%	-2.7%	-8.8
COC(=O)c1ccc(NC(=O)CCc2c(C)nn(-c3ccc(N4CCOCC4)nn3)c2C)cc1	-0.3	·	·	·	0.8%	-2.2%	4.7
COc1cccc(-c2nc(C#N)c(N3CCN(C(=O)c4ccco4)CC3)o2)c1	1.5	·	3.3	9.8%	-1.1%	-4.9%	-8.0
COc1ccc(Cc2noc(COc3ccc(Cl)cc3)n2)cc1	1.4	-3.3	17.4	4.7%	?	-0.9%	-1.0
CN(C)C(=O)CCc1ccc2c3c([nH]c2c1)[C@]1(CCc2ccccc2)[C@@H](C(=O)N2CCCCC2)C[C@H](CC(=O)NCCc2ccccn2)C(=O)N1CC3	1.1	·	·	·	1.8%	-4.9%	-15.4
COc1ccccc1S(=O)(=O)Cc1ccc(C(=O)NC2CCCCC2)o1	-0.7	-1.7	-3.0	22.3%	1.4%	-1.1%	7.0
CC1=C(C(=O)NCc2ccccc2)C(c2cccs2)NC(=S)N1 (stereo not given)	-0.1	-4.6	3.5	14.8%	-2.6%	·	11.7
COC(=O)c1cc(=O)n(Cc2ccco2)c(=Nc2ccc(F)cc2)s1	2.4	1.2	5.6	?	-1.1%	1.2%	-3.4
Cc1cc2ccccc2c(=O)n1CC(=O)NCc1ccco1	2.6	-2.5	5.0	-0.8%	-1.8%	?	-8.7
SCc1nc2ccc(Cl)cc2[nH]1	-0.5	·	·	·	1.2%	-5.5%	·
COc1ccc(/C=C(/NC(=O)c2ccccc2)C(=O)N2CCCCC2)cc1	-0.1	·	-9.4	5.2%	1.5%	-3.4%	22.0
COc1cc2c(cc1OC)C1O[C@](c3ccsc3)(C2)Oc2cc(-c3ccccc3)oc(=O)c21	·	10.6[11.7 µM]	i	-8.4%	·	·	·
Cc1cccc(Cc2cccc(C)c2O)c1O	-0.2	·	·	·	11.4%	·	5.9
CCCC(C)NC(=O)CSc1nc2ccc(C)cc2[nH]1 (stereo not given)	0.6	3.3	-4.6	19.7%	0.5%	0.9%	-8.7
Cc1cc(=O)[nH]c(SCC(=O)N2C(C)CCCC2C)n1 (stereo not given)	-0.6	·	-9.4	14.3%	-0.5%	·	-2.7
Cc1ccc(S(=O)(=O)NC2(C(F)(F)F)C(=O)Nc3c2c(=O)n(C)c(=O)n3C)cc1 (stereo not given)	0.6	5.9	26.8	17.7%	1.9%[38.3 µM]	-7.3%	-5.6
CC1(CC(=O)N/N=C/c2ccc(-c3cccc(C(F)(F)F)c3)o2)OCCO1	-0.4	3.3	-2.2	1.2%	4.4%	?	-10.0
O=C1Nc2ccccc2N=C(c2ccccc2)C1N(Cc1ccc(F)cc1)C(=O)c1cccnc1 (stereo not given)	0.8	·	·	·	0.1%	-2.4%	-14.5
CC(Oc1ccccc1)C(=O)N=C1SC2CS(=O)(=O)CC2N1c1cccc(F)c1 (stereo not given)	-0.5	·	-1.3	22.1%	-0.5%	1.6%	24.0
COCCn1nnnc1C(c1ccccn1)N1CCN(c2cc(Cl)ccc2C)CC1 (stereo not given)	14.0	3.3	2.5	2.9%	1.0%	-2.1%	8.7
CCCc1cc(=O)[nH]c2nnc(SCC(=O)Nc3ccc(C(C)=O)cc3)n12	0.9	·	-17.1	·	-0.4%	1.8%	-2.7
COc1ccccc1S(=O)(=O)N1CCN(S(=O)(=O)c2ccccc2C#N)CC1	0.6	3.8	7.1	12.0%	1.1%	·	6.2
COc1ccc([N+](=O)[O-])cc1NC(=O)CCNC(=O)Cn1ccc2ccccc2c1=O	0.0	-1.5	-6.1	3.6%	4.6%	-2.8%	-5.4
COc1ccc(C2=NN(CN3C(=O)C(=O)c4ccccc43)C(c3ccc(Br)cc3)C2)cc1 (stereo not given)	0.2	-2.2	3.9	3.2%	·	-2.9%	-5.2
COc1ccc(CC(=O)Nc2nnc(C(C)C)s2)cc1	1.7	3.6	-0.1	-3.2%	0.7%	·	11.4
COc1ccc(NC(=O)Cn2c(C)c3cnn(-c4ccccc4)c(=O)c3c2C)c(OC)c1	-0.6	·	·	·	1.4%	-4.3%	-15.6

2 entries from above, with values under each structure.
Results follow in this order: TRPML1 agonist	Menin-MLL FL inh	TRPV1 PAM	Sfp inh	PINK1 modulator	ClpP mod	TRPML1 blocker
- CCCc1cc(=O)[nH]c2nnc(SCC(=O)Nc3ccc(C(C)=O)cc3)n12
    0.9	·	-17.1	·	-0.4%	1.8%	-2.7
- CC(=O)NCC(c1ccc2c(c1)OCO2)N1CCN(c2ccccc2)CC1 (stereo not given)
    -0.5	·	·	·	-0.9%	-1.6%	4.5

Later entries:
compound	TRPML1 agonist	Menin-MLL FL inh	TRPV1 PAM	Sfp inh	PINK1 modulator	ClpP mod	TRPML1 blocker
COc1ccc(CNC(=O)c2cc3c(=O)[nH]c4ccc(C)cc4c3s2)c(OC)c1	0.0	·	·	·	-0.4%	3.7%	5.4
CCOC(=O)c1cc(-c2ccccc2)nc2nc(N3CCCCC3)sc12	1.2	4.4	-5.8	-0.8%	14.2%	1.7%	4.4
COc1ccc(NC(=O)C2c3ccccc3OCC(=O)N2CC(F)(F)F)cc1 (stereo not given)	-0.7	·	·	·	-0.5%	-10.2%	·
Cc1ccc2c(c1)N(C(=O)CCC(=O)NCCCN1CCOCC1)CC(C)O2 (stereo not given)	0.3	-6.3	14.0	20.8%	-0.2%	0.0%	-17.6
COC(=O)c1ccc(C23CC4(C2)[C@H](CN(Cc2ccc(C(F)(F)F)cc2)[C@@H]4c2ccccc2)C3c2ccc(C(F)(F)F)cc2)cc1 (stereo not given in full)	·	3.4&3.7	-17.2	15.0%&5.6%	·	·	·
CCOC(=O)N1CCC(NC(=O)c2cc(-c3ccc(F)cc3)[nH]c2C)CC1	-0.1	3.4	1.0	5.2%	-1.1%	?	-10.9
CC(OC(=O)c1cccc(-n2cnnn2)c1)C(=O)Nc1ccc(N(C)C)cc1 (stereo not given)	0.6	·	10.5	·	-0.2%	1.0%	9.6
Cc1ccc(C2CC(c3ccccc3)=NN2C(=S)Nc2ccccc2)o1 (stereo not given)	-0.7	11.4	8.4	44.7µM*	8.7%	1.1%	30.0
CN(C)c1cccc(C(=O)NCCCn2ccc3ccccc32)c1	1.8	-0.3	-7.6	-6.5%	1.2%	·	7.3
CCCCOc1ccccc1Cn1c(=O)oc2ccc(C)cc21	3.0	4.7	-12.5	-8.4%	-3.7%[38.3 µM]	-5.0%	7.6
COc1ccc(Cl)cc1NC(=O)CN(C)CC(=O)NCc1ccc(F)cc1	1.0	·	·	·	4.8%	0.4%	0.7
O=C(Nc1ccccc1)OCCN1CCOCC1	-0.4	·	·	·	0.8%	-3.1%	3.1
COc1ccc(CCn2nc(C)c([N+](=O)[O-])c2C)cc1	0.9	-4.6	-3.5	8.3%	1.7%	-0.3%	34.0
C=C1CCN(C(C(=O)O)C(C)C)S(=O)(=O)c2ccccc21 (stereo not given)	0.8	-2.6	·	3.5%	·	·	-16.8
Cc1cc(=O)oc2cc(NS(=O)(=O)c3ccccc3)ccc12	0.5	-0.2	1.5	12.7%	3.4%	·	2.0
CS(=O)(=O)N(CC(=O)N1CCCCCC1)c1cc(Cl)ccc1Cl	0.2	-5.2	-7.1	8.3%	-0.1%	-0.1%	-6.4
COc1ccc(CCNC(=O)CN(c2cc(C(F)(F)F)ccc2Cl)S(C)(=O)=O)cc1	-1.5	·	·	·	-1.4%	0.8%	8.5
CC1(C)CC(=O)C(CC2C(=O)CC(C)(C)CC2=O)C(=O)C1	1.6	0.4	5.6	-13.8%	-1.2%	·	-7.2
Cc1ccsc1-c1n[nH]c(=S)n1C1CCCCC1	-0.6	2.1	22.8	-2.9%	-0.7%	-4.3%	13.3
Fc1cccc2sc(Nc3nnc(-c4ccco4)o3)nc12	0.2	3.9	14.3	6.0%	-0.1%	25.1µM*	-10.3

Bioassay records from PubChem.
